Screening results: PubChem BioAssay, National Center for Advancing Translational Sciences (NCATS)
GLA inh pH 4.5: inhibitors of human alpha-galactosidase A at pH 4.5; P06280; purified enzyme, 4-MU-alpha-Gal fluorescence, pH 4.5; activity change, negative = inhibition, % at 105 µM; 230,000 tested, under 10 active; AID 1467; inconclusive = small, poorly fitted or top-dose-only inhibition, or a rising curve; inactive = flat fitted curve, though single readings scatter; no compound was filed as active;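 note: 0% = full activity with enzyme and -100% = basal without enzyme; dose as in the result columns while the protocol names 77 µM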
Target sequence (P06280 whole entry, looked up): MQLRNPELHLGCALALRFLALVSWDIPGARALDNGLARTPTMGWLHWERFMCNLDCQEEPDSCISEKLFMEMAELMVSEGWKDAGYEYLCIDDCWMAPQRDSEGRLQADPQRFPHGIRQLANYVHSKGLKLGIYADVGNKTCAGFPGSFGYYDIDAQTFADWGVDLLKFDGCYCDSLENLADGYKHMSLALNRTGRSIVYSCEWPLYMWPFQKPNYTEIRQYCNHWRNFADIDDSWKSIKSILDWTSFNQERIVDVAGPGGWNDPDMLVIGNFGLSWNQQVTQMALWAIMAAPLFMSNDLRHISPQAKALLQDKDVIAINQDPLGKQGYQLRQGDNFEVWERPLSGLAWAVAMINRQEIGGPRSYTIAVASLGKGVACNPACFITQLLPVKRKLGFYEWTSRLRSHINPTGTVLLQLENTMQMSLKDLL
Rango-impB inh: prevents formation of the Rango-importin beta complex; Q14974; Rango CFP/YFP FRET sensor + importin beta, 45 min; Potency, µM (series often up to 92.2 µM), inactives show at the highest dose inhibition of complex formation; 340,000 compounds, 0.031% hits; AID 540263; active = rising FRET ratio curve, often small or poorly fitted; inconclusive = mostly compound fluorescence or quenching in the first reads; inactive = flat curves in all reads;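 note: potency is the fitted concentration of half-maximal effect; 0% = DMSO wells and 100% = buffer wells lacking importin beta; nearly all actives have a fitted effect of over 15% in size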
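Inhibition scored from the CFP 486 nm/YFP 530 nm FRET ratio 45 min after adding 0.125 microM importin beta to 50 nM Rango biosensor preincubated 5 min with compound (room temperature, PBS with DTT, Tween-20, BSA). No-importin wells as positive control.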
miR-21 FLuc: miR-21 reporter, rising signal; Potency, µM (series often up to 38.3 µM), inactives show top-dose reporter change, positive = more light; HeLa miR-21 FLuc reporter, luciferase, 48 h; 340,000 tested, under 10 active; active = well fitted rising curve with a large enough effect; inconclusive = small, poorly fitted or top-dose-only effect; inactive = no such curve, though single readings can be large or run the other way;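 note: % of control where 0% means no effect; miR-21 action dims this reporter so a rising signal means less miR-21 action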
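HeLa cells endogenously expressing miR-21, stably carrying CMV-driven firefly luciferase with a downstream miR-21 binding site, 2000 cells/well. Titrations up to approximately 40 uM, 48 hours; luciferase luminescence read.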
Rango dissoc inh: inhibitors of RanGTP-induced Rango-importin beta complex dissociation. O95149+P62826. Biochemical FRET Rango-importin beta, RanGTP-induced dissociation. Potency, µM (top dose mostly 46.1 µM), for the others: top-dose activity change, negative = inhibition. 340,000 compounds, 0.071% hits. AID 540253; active means falling FRET ratio curve, often poorly fitted, with flat reads before Ran was added; inconclusive means other falling curves, or compound fluorescence or quenching; inactive means flat or rising ratio curve;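 note: potency is the fitted concentration of half-maximal effect; % of control where 0% means no effect; nearly all actives have a fitted effect of over 45% in size; -100% = wells without RanGTP and RCC1; the record marks most hits as doubtful in a second field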
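Rango (0.1 uM)–importin beta (0.25 uM) complex; RanGTP-RCC1 trigger; 45 min RT; CFP/YFP FRET read.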
The depositor's hits bear a star; ? = inconclusive; . = not tested or not shown; & = joins results of further samples.

Fields: GLA inh pH 4.5	Rango-impB inh	miR-21 FLuc	Rango dissoc inh
O=C(CCCOc1ccc(Cl)cc1Cl)Nc1ncccn1
→ -1	3.8%	-35%	2%
Cc1ccc(NC(=O)CS(=O)CC(=O)Nc2cnc3ccccc3c2)cc1Cl (configuration not stated)
→ .	-2.2%	-11%	11%
COc1ccc(CN2CCNC(=O)C2CC(=O)NCCCC2CCCC2)c(F)c1 (configuration not stated)
→ .	-4.3%	-21%	-16%
COC(=O)[C@H](C)NC(=O)NCc1ccccc1F
→ 8	0.0%	-2%	0%
CCC(C)C(NC(=O)c1ccccc1NC(=O)c1ccc(OC)cc1)C(=O)NCCCn1ccnc1 (configuration not stated)
→ .	-1.2%	4%	20%
COC(=O)C(Cc1c[nH]c2ccccc12)NC(=O)c1cccs1 (configuration not stated)
→ -7	6.1%	-2%	-2%
COc1ccccc1NC(=O)CSc1nnc(-c2ccoc2C)o1
→ .	-3.6%	.	-19%
O=S(=O)(CS(=O)(=O)Oc1ccccc1)Oc1ccccc1
→ .	-3.3%	.	10%
CC(CNC(=O)c1ccco1)NC(=O)c1ccco1 (configuration not stated)
→ .	-2.5%	-4%	-5%
COc1ccc(N2CCN(C(=S)Nc3ccccc3)CC2)cc1
→ .	-0.3%	5%	-1%
COc1cc(Cl)c(S(=O)(=O)NCc2ccccn2)cc1Cl
→ -3	3.4%	-5%	0%
O=C1CCCCC1(CCc1ccncc1)CCc1ccncc1
→ .	3.3%	.	-9%
COc1cc(C2NC(=O)N(C)C(C)=C2C(=O)OCc2ccccc2)cc(Br)c1O (configuration not stated)
→ .	-0.7%	-8%	-7%
Cc1cc(C)c(C(CC(=O)c2cccs2)C(C#N)C#N)c(C)c1 (configuration not stated)
→ -20	-15%	-29%	-26%
CCOc1ccc(NC(=O)CC2C(=O)NCCN2C(=O)c2ccc(Cl)cc2)cc1 (configuration not stated)
→ 2	4.6%	-1%	7%
CCc1cc2cc(C)cc(C)c2nc1Cl
→ 9	-3.4%	0%	-1%
CCn1c(SCC(=O)N2CCN(c3ccc(Cl)cc3)CC2)nc2ccccc2c1=O
→ -1	-2.3%	1%	8%
Cc1cc(/C=C2\SC(=S)N(C)C2=O)c(C)n1-c1ccccc1O
→ .	?	.	?
COc1ccc(C(C[N+](=O)[O-])c2c(C)[nH]n(-c3ccccc3)c2=O)cc1 (configuration not stated)
→ .	1.2%	14%	4%
CC(NC(=S)Nc1cccc(F)c1)C(c1cccs1)N1CCOCC1 (configuration not stated)
→ -1	-0.4%	11%	-3%
O=C(C1=C[C@@H](c2ccc(C(F)(F)F)cc2)C[C@@H](OCCCCO)O1)N1CCN(Cc2ccc3c(c2)OCO3)CC1
→ ?	0.9%	0%	16%
COc1ccc(/C=C/C(=O)NC(=S)NCc2ccccc2)cc1OC
→ 0	-3.4%	-11%	-5%
COc1ccc(/C=C/CN2CCCC(C(=O)c3ccc(OC)c(F)c3)C2)cc1 (configuration not stated)
→ -11	1.5%	3%	-13%
CCOC1=CC(=O)OC(c2ccccc2)C1 (configuration not stated)
→ .	-0.1%	.	-2%
CCOC(=O)N1CCC(NC(=O)c2cc3cc4cc(OC)ccc4nc3o2)CC1
→ 0	0.6%	-16%	-19%
CCOC(=O)C1CCN(C(=O)c2ccc(Cl)c(S(=O)(=O)N3CCCC3)c2)CC1
→ .	-0.6%	-11%	1%
Cc1cccc(OCCC(=O)NNC(=O)c2ccoc2C)c1
→ .	-0.2%	.	-3%
COc1cc(CNCc2cccc(OC)c2OC)cc(OC)c1
→ .	1.5%	6%	-2%
c1ccc(-c2cc3ccccc3[nH]2)cc1
→ .	3.3%	-41%	5%
CCOC(=O)c1sc(NC(=O)CSc2nc(C)cc(C)n2)c(C#N)c1C
→ 2	-4.3%	-4%	-9%
CN(C)CCNC(=O)NC1CCCCC1
→ -4	0.1%	-2%	12%
CCN(CC(=O)NCc1cccs1)C(=O)CCC(=O)c1ccc(C)cc1
→ .	-5.4%	.	19%
COc1ccccc1C(=O)Oc1ccc(N2C(=O)CCC2=O)cc1
→ -3	-1.6%	-4%	-11%
Cc1ccc(NC(=O)COc2cccc(Oc3ccccc3)c2)cc1S(=O)(=O)N1CCOCC1
→ .	-0.7%	.	-12%
COc1ccc(/C(C)=N/NC(=O)c2nc(C)cc(C)n2)cc1
→ 0	0.5%	-43%	5%
COc1ccc(N=C2S/C(=C\c3ccc(N4CCOCC4)o3)C(=O)N2CCc2c[nH]c3ccccc23)cc1
→ -11	.	25%	.
COc1ccc(-c2csc3ncnc(N4CCN(c5ccccc5OC)CC4)c23)cc1
→ .	0.4%	?	20%
O=C(COc1ncnc2cc([N+](=O)[O-])ccc12)N(CCc1ccccc1)Cc1ccccc1
→ 14	1.4%	-11%	-21%
CCOC(=O)c1cc2ccccc2n1CC(=O)c1ccccc1
→ .	7.9%	-3%	-1%
COc1cc(C)nc(NC(=S)N(C)C(=O)c2ccccc2)n1
→ -7	2.4%	-4%	1%
CCn1nnc2cc(C(=O)Nc3cccc(S(=O)(=O)N(C)C)c3)ccc21
→ .	0.0%	.	9%
COc1ccccc1C(=O)Nc1ccnn1C1CCN(C)CC1
→ .	-2.7%	0%	-12%
CCCNC(=O)C1CC(=O)N(c2ccc(OCC)cc2)C1 (configuration not stated)
→ -15	-0.9%	-1%	0%
CS(=O)(=O)N(CC(=O)N1CCCC1)c1cccc(Cl)c1
→ -5	1.7%	2%	6%
O=C(CN(c1ccc(Br)cc1)S(=O)(=O)c1ccc(Cl)c([N+](=O)[O-])c1)NCC1CCCO1 (configuration not stated)
→ .	1.5%	.	1%
O=C(COc1ccc2c(c1)OCO2)Nc1ccc2c(c1)oc1ccccc12
→ -3	5.1%	1%	14%
COc1cc(N2C(=O)CC3(CCCC3)CC2=O)cc(OC)c1OC
→ 0	0.7%	-1%	18%
CCn1cc(CNCc2cn(C)nc2-c2ccc(C3CCCCC3)cc2)cn1
→ -6	0.2%	19%	8%
COC(=O)Nc1ccc(S(=O)(=O)N2CCC(C(=O)N3CCCCC3C)CC2)cc1 (configuration not stated)
→ 4	-2.9%	1%	3%
CC(C)n1nc(C(=O)Nc2nc3ccccc3[nH]2)c2ccccc2c1=O
→ 1	3.0%	7%	1%

(more compounds)
Fields: GLA inh pH 4.5	Rango-impB inh	miR-21 FLuc	Rango dissoc inh
Cc1ccccc1CNC(=O)Cn1cnc(S(=O)(=O)N2CCCC2)c1
→ .	0.5%	-2%	11%
S=c1[nH]nc(CSCCOc2ccccc2)o1
→ -13	-0.7%	-3%	1%
Cc1ccccc1-c1noc(C2CCCCC2)n1
→ 5	-1.4%	-2%	-2%
O=C(c1ccc(Cl)cc1)C1CCN(C(=O)c2ccccc2F)CC1
→ .	1.4%	.	1%
Oc1cc2c(cc1CN1CCN(c3ncccn3)CC1)OCO2
→ .	-0.2%	0%	8%
CC1CN(CC(=O)Nc2ccc([N+](=O)[O-])cc2Br)CC(C)O1 (configuration not stated)
→ -3	-2.3%	3%	-8%
Cc1ccc(C23CC4CC(CC(NC(=O)NCCN(C)C)(C4)C2)C3)cc1
→ -3	-1.8%	-6%	22%
COc1ccccc1-c1noc(CCCC(=O)Nc2ccc(C(N)=O)cc2)n1
→ -16	0.3%	5%	11%
CCCC(=O)Nc1ccc(S(=O)(=O)N2CCC(c3nc4ccccc4[nH]3)CC2)cc1
→ .	-1.9%	.	?
CCOc1ccc(/C(O)=C2\C(=O)C(=O)N(CCOCCO)C2c2ccccc2OC)cc1 (configuration not stated)
→ -12	2.3%	-3%	1%
COc1ccc(/C=C/C(=O)c2c(O)ccc3c(C)cc(=O)oc23)cc1
→ -7	-4.0%	-6%	-5%
COc1cc(NC(=S)NCCCN2CCOCC2)cc(OC)c1OC
→ 6	4.4%	-2%	14%
NC(=O)C1CCN(C(=O)CC(c2ccccc2)c2ccccc2)CC1
→ .	0.0%	0%	11%
CCOc1ncccc1C(=O)OCc1ccc(C(=O)OC)cc1
→ 5	1.2%	-14%	?
OC(c1cc(-c2ccc(C(F)(F)F)cc2)nc(C(F)(F)F)c1)C1CCCCN1 (configuration not stated)
→ ?	5.9%	?	-5%
COC(=O)c1c(NC(=O)CSc2nncs2)sc2c1CCCCC2
→ -1	-5.7%	-10%	4%
O=C(Nc1ccccc1)c1ccc(-c2ccccc2)s1
→ 10	3.7%	-71%	19%
CS(=O)(=O)NCCCCNc1ccc(C(F)(F)F)cc1[N+](=O)[O-]
→ 2	4.1%	-25%	-12%
O=C(NCCN1CCN(c2ccccc2)CC1)Nc1ccc(Cl)cc1
→ .	-0.3%	9%	-3%
O=C(NCCn1cccc1)c1cccc2ccccc12
→ 2	5.5%	-13%	-8%
O=C(Nc1cccnc1)c1cc(-c2ccccc2O)on1
→ 12	0.4%	1%	10%
Cc1ccc(NC(=O)c2ccc(OCc3c(C)noc3C)cc2)cc1C
→ .	1.3%	.	1%
Cc1[nH]n(-c2ccccc2)c(=O)c1C(C[N+](=O)[O-])c1ccc(Cl)cc1 (configuration not stated)
→ 5	-0.7%	0%	-18%
Cc1ccccc1NC(=O)NC(C)(C)CC(C)(C)C
→ 8	-0.8%	-1%	1%
CCOC(=O)COn1c(=O)c(-c2ccc(C)cc2)[n+]([O-])c2ccccc21
→ .	-1.9%	-13%	-9%
C/C(=C\c1ccco1)C1C(C#N)=C(N)Oc2n[nH]c(-c3ccccc3)c21 (configuration not stated)
→ -4	-0.1%	-1%	-3%
CC(=O)c1ccc(S(=O)(=O)NCC(=O)N2CCN(C/C=C/c3ccccc3)CC2)cc1
→ .	1.5%	.	2%
CCn1nc([N+](=O)[O-])c(C(C#N)c2nc3cc(C(F)(F)F)ccc3s2)c(Cl)c1=O (configuration not stated)
→ -7	5.5%	21%	0%
CC(OC(=O)CNC(=O)c1ccc(Cl)c([N+](=O)[O-])c1)C(=O)NCc1ccco1 (configuration not stated)
→ .	-0.1%	.	-6%
CC(COS(N)(=O)=O)Cc1ccc(C(F)(F)F)cc1 (configuration not stated)
→ .	4.0%	-4%	17%

Overlap with the part before: 2 compounds; new compounds follow.
Fields: GLA inh pH 4.5	Rango-impB inh	miR-21 FLuc	Rango dissoc inh
CC(OC(=O)CNC(=O)c1ccc(Cl)c([N+](=O)[O-])c1)C(=O)NCc1ccco1 (configuration not stated)
→ .	-0.1%	.	-6%
CC(COS(N)(=O)=O)Cc1ccc(C(F)(F)F)cc1 (configuration not stated)
→ .	4.0%	-4%	17%
CCCCCN(C(=O)NC(=O)NCCCC)S(C)(=O)=O
→ 19	-0.3%	-1%	16%
COc1cccc(C(=O)Nc2ccncc2)c1
→ 0	.	3%	.
Cc1cc(=O)[nH]c(N/N=C/CCc2ccccc2)n1
→ 2	-1.4%	-9%	1%
Cc1cc(OCC(=O)NCCc2c[nH]c3ccccc23)c2c(C)c(C)c(=O)oc2c1
→ .	0.3%	6%	-21%
O=C1C=CN2CCOCC2C1 (configuration not stated)
→ .	0.5%	.	?
CN1CCC(N(C)CC(=O)Nc2ccc3c(c2)OC(F)(F)O3)CC1
→ -2	-0.2%	-9%	-15%
CCCn1nnnc1SCC(=O)N1C(C)CCCC1C (configuration not stated)
→ .	-0.7%	-7%	-1%
CSc1c(CN2CCN(C)CC2)c2ccccc2n1C
→ .	-3.6%	.	37%
CC1(C)CC(=O)c2c(O)cc(OCC(=O)Nc3ccc(S(N)(=O)=O)cc3)cc2O1
→ .	-0.2%	-1%	13%
CC(=O)Oc1cccc(/C=C2\C=C(c3ccc(C)cc3)OC2=O)c1
→ 1	?	1%	?
Cc1ccc(S(=O)(=O)c2cc3c(=O)n4ccccc4nc3n(C3CCCCC3)c2=N)cc1
→ .	?	-3%	?
CCC(C)NC(=O)c1cnn2c1NC(c1cccs1)CC2C(F)(F)F (configuration not stated)
→ -2	-0.4%	-3%	2%
Clc1cc2nc3ccccn3c2cc1Cl
→ 22	5.1%	-34%	4%
CC(C)(C)c1nnc2sc(SCC(=O)N3CCCCC3)nn2c1=O
→ .	-1.8%	.	-13%
O=C1c2ccc(-c3ccc(Cl)c(C(F)(F)F)c3)cc2S(=O)(=O)c2cccc(C(=O)N3CCN(c4ncc(Br)cn4)CC3)c21
→ .	-0.3%	.	-13%
CCOc1ccc2ccccc2c1C(=O)N[C@@H]1C(=O)N2[C@@H]1SC(C)(C)[C@@H]2C(=O)O
→ 2&12	-2.8%&5.3%	12%	-8%&-10%

This is a subset; count on the stated rates, not on these rows.
